Screening results as filed in PubChem.
HPGD block: qHTS Assay for Inhibitors of HPGD (15-Hydroxyprostaglandin Dehydrogenase). 150,000 tested, 4.3% active. purified HPGD, NADH fluorescence kinetic, PGE2 substrate. Potency, µM, for the others: at the highest dose activity change, negative = inhibition, hits mostly inhibitors; active = well fitted inhibition curve with a large enough effect (not every such curve was filed as active); inconclusive = small, poorly fitted or top-dose-only effect, or another doubt; inactive = no such curve, though single readings can be large or run the other way;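 further: top concentration of the series not given in the record; plate controls included wells without enzyme; inactives centre near -10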
Target sequence (P15428 whole entry, looked up): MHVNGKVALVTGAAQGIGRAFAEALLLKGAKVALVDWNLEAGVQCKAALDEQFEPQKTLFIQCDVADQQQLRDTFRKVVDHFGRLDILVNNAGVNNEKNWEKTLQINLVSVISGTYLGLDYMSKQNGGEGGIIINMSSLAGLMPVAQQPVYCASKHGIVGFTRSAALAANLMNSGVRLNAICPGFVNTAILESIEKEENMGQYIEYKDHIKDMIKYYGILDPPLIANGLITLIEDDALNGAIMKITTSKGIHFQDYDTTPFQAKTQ
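NADH formation kinetics: reaction with 30 uM PGE2 and 1 mM NAD+ (final), 20 nM enzyme, Tris-HCl pH 8 with Tween 20, after 15 min compound preincubation at room temperature. Fluorescence change, last versus first of five reads.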
* = called active by the depositor; ? = inconclusive; & = joins results of further samples. On the % scale 0 is the no-effect control and ±100 the full control effect; potency means the concentration at half of the fitted maximal effect.

No.	structure	HPGD block
1	CCN(CC)C(=S)Nc1ccc(OC)cc1	-4%
2	CCOC(=O)c1[nH]c2ccc(OC)cc2c1C	?
3	S=C(Nc1ccc2snnc2c1)N1CCN(c2ccccn2)CC1	-8%
4	CC(=O)Nc1ccc(S(=O)(=O)N2CCCCC2c2cccnc2)cc1 (stereo not drawn)	0%
5	C/C(=N\O)C(=O)NCCCNCCCN(C)C	-3%
6	Cc1ccc(C)c(NC(=O)CN(C)C(=O)[C@@H](NC(=O)c2ccc(C(C)(C)C)cc2)C(C)C)c1	-6%
7	Cc1ccc(NC(=O)NC(=O)CSc2nnc(-c3ccc(Cl)cc3Cl)n2N)c(C)c1	-27%
8	CC(C)CCOc1ccc(C(=O)O)cc1	-6%
9	COC(=O)C1CCCN1C(=O)C1CCCN1C(=O)CNC(=O)OCc1ccccc1 (stereo not drawn)	4%
10	FC(F)(F)c1ccccc1Cl	-4%
11	O=C(CSc1nnnn1-c1ccc2c(c1)OCO2)NCc1ccccc1	-14%
12	COC(=O)CN(c1c(C)cccc1C)S(C)(=O)=O	-3%
13	CC(C)CCNC(=O)Nc1ccc2c(c1)N(C)C(=O)CS2	-2%
14	COc1ccccc1N1CCN(CC(O)c2ccc3cc[nH]c3c2)CC1 (stereo not drawn)	-6%
15	Cc1cc(F)ccc1S(=O)(=O)N1CCCOC1CNC(=O)C(=O)NCc1ccco1 (stereo not drawn)	-7%
16	COc1cc2c(cc1OC)-c1nc3ccccc3c(=O)n1C(C)(C)C2	-12%
17	O=C(CSc1nc(-c2ccccc2)c(-c2ccccc2)[nH]1)Nc1ccc2c(c1)OCO2	?
18	COc1ccc2c(c1)-c1ccccc1S(=O)(=O)N2C(C)=O	-20%
19	Cc1ccc(NC(=O)CCNS(=O)(=O)c2cc(Br)cnc2N)c(Cl)c1	-17%
20	CCC(=O)Nc1ccc(NC(=O)CSc2nnnn2-c2cccnc2)cc1C	-2%
21	O=C(O)C1(O)C[C@H](O)C(O)[C@@H](O)C1 (stereo partly drawn)	0%
22	Cc1cc(C)c2nc(NC(=O)c3ccc(OCC4CCCO4)cc3)sc2c1 (stereo not drawn)	-23%
23	COc1ccc(C(=O)Nc2cc(OC)cc(OC)c2)cc1	-4%
24	COc1ccc(CCNS(=O)(=O)c2ccc(OC)cc2)cc1	-10%
25	CCCCC(=O)Nc1nc(C)c(-c2csc(Nc3ccccc3OC)n2)s1	-18%
26	O=C(O)C1C2C=CC(C2)C1C(=O)NC(c1ccccc1)c1ccccc1 (stereo not drawn)	-5%
27	Cc1ccc(NC(=O)Nc2ccc3c(c2)N(C)C(=O)CS3)cc1C	-10%
28	CS(=O)(=O)N1CCCC(C(=O)NCc2ccc(F)cc2Cl)C1 (stereo not drawn)	-10%
29	C[C@@H]1CC=C[C@@H]2[C@H]1C(=O)N(Cc1ccccc1)[C@H]2c1cccc(C#Cc2ccccc2)c1	-5%
30	O=C(CN1CCN(S(=O)(=O)c2ccc(Br)cc2)CC1)N/N=C/c1ccco1	-2%

Five compounds from above, ordered by number of heavy atoms, ascending:
No.	structure	HPGD block
8	CC(C)CCOc1ccc(C(=O)O)cc1	-6%
12	COC(=O)CN(c1c(C)cccc1C)S(C)(=O)=O	-3%
28	CS(=O)(=O)N1CCCC(C(=O)NCc2ccc(F)cc2Cl)C1 (stereo not drawn)	-10%
14	COc1ccccc1N1CCN(CC(O)c2ccc3cc[nH]c3c2)CC1 (stereo not drawn)	-6%
22	Cc1cc(C)c2nc(NC(=O)c3ccc(OCC4CCCO4)cc3)sc2c1 (stereo not drawn)	-23%

Next compounds
No.	structure	HPGD block
31	COc1cc(Cl)c(S(=O)(=O)NCCCN2CCOCC2)cc1Cl	-8%
32	CCCCOc1ccc(/C=c2\sc3ncnn3c2=O)cc1	?
33	O=C(Oc1ccc(-c2cnc3ccccc3n2)cc1)c1ccc(Cl)c([N+](=O)[O-])c1	-14%
34	CCOC(=O)c1c(C)[nH]c(C(=O)OCC(=O)N2c3ccccc3CC2C)c1C (stereo not drawn)	-7%
35	Cc1nnc(NCCN2CCOCC2)[nH]c1=O	-8%
36	COc1ccc(/C=C(/C#N)C(=O)Nc2cccc(C)c2C)cc1C(=O)O	-8%
37	c1cncc(CNc2ncn[nH]2)c1	-8%
38	COc1ccc(-c2[nH]ncc2/C=N\NC(=O)c2ccc(C(C)(C)C)cc2)cc1OC	?
39	Cc1cc2n(n1)C(c1ccsc1)Nc1ccccc1-2 (stereo not drawn)	-15%
40	Cc1cccc(C(=O)Nc2sc(C(=O)N3CCCC3)c(C)c2C#N)c1	-26%
41	CC(=O)Nc1ccc(NC(=O)c2oc3cc(C)c(C)cc3c2C)cc1	?
42	COc1ccccc1-c1c(C(F)(F)F)oc2cc(OC(=O)c3ccc([N+](=O)[O-])cc3)ccc2c1=O	-5%
43	CCN(CC)C(=O)CSc1nc2ncccc2[nH]1	-3%
44	Cc1c(NC(=O)c2cnn3cccnc23)c(=O)n(-c2ccccc2)n1C	-2%
45	CCOC(=O)C1CCCN(C(=O)Cc2c(C(=O)O)[nH]c3ccccc23)C1 (stereo not drawn)	-14%
46	Cc1nc2ccccc2c(=O)n1NC(=O)COc1ccccc1	-5%
47	CCN(CC)C(=O)C1CCN(S(=O)(=O)c2ccc3oc4ccccc4c3c2)CC1	-11%
48	CCC(=O)N1CCN(c2nc3ccccc3s2)CC1	-6%
49	COCc1cc(=O)[nH]c(Nc2nc3ccccc3o2)n1	-13%
50	COc1ccc(NC(=O)/C(C#N)=C/c2c(C)nn(-c3ccc(F)cc3)c2Cl)cc1Cl	-13%
51	COc1ccc(-n2c(Cc3cccn3C)nnc2SCC(=O)Nc2ccc(Cl)cc2)cc1	-11%
52	COc1ccc(Nc2oc(-c3ccco3)nc2S(=O)(=O)c2ccc(F)cc2)cc1	?
53	COc1ccc(S(=O)(=O)N(C)CC(=O)Nc2ccccc2OC)cc1C	-2%
54	Cc1ccc2oc(C(=O)NCc3ccc4c(c3)OCO4)c(C)c2c1	?
55	CCOc1ccc(C(C)C)cc1S(=O)(=O)Nc1ccc(Cl)cn1	-13%
56	CN(C)c1ccc(N=Nc2cccc3ccoc23)cc1	-20%
57	CCSc1ncccc1-c1nc2ccccc2[nH]1	-24%
58	COCc1c(C#N)c(NCCc2ccc(F)cc2)nc(C)c1[N+](=O)[O-]	-7%
59	O=C(c1cc(Cl)ccc1[N+](=O)[O-])N1CCc2ccccc2C1	-8%
60	CCOC(=O)CNC(=O)CSc1nnc(-c2ccco2)n1N	-9%
61	Cc1ccc(OCC(=O)N/N=C/c2ccc([N+](=O)[O-])o2)cc1	-16%
62	CCOC(=O)c1ccc(S(=O)(=O)N2CCN(CCC#N)CC2)cc1	1%
63	Cc1cccc(NC(=O)N(C)Cc2cccs2)c1	-7%
64	CCCC(C)NC(=O)COc1ccc(Sc2ccc(OCC(=O)NC(C)CCC)cc2)cc1 (stereo not drawn)	-18%
65	COCCCNCCOCCSc1ccc(Cl)cc1	-17%
66	O=C(CSc1nnc(-c2ccco2)n1Cc1ccccc1)c1ccccc1	28µM*
67	CCOC(=O)c1sc(NC(=S)NC(=O)c2ccco2)nc1C	-18%
68	COc1nc(Oc2ccc(C(=O)O)cc2)nc(Oc2ccc(C(=O)O)cc2)n1	-9%
69	COC(=O)c1ccc(NC(=O)CSc2nnc(CNc3ccc(F)cc3)n2C)cc1	-2%
70	COc1ccccc1N(C)S(=O)(=O)c1ccc(C(=O)N2CCC(C(N)=O)CC2)cc1	-5%
71	c1ccc(Nc2nc(N3CCCCC3)nc(N3CCNCC3)n2)cc1	-16%
72	CCN(CC)CCn1c(SCC(=O)NCc2ccco2)nc2c(sc3ccccc32)c1=O	?
73	O=C(NCCSc1ccc(Cl)cc1)c1ccco1	-29%
74	Cn1cccc1Cc1nnc(SCC(=O)N2CCCC2)n1CCc1ccccc1	-13%
75	Cc1cc(C)cc(N2C(=O)CC(Sc3nnnn3-c3ccccc3)C2=O)c1 (stereo not drawn)	?
76	COc1ccc(NC(=O)c2cncc(Br)c2)c(S(=O)(=O)N2CCOCC2)c1	-10%
77	CC1CCN(c2c(NCC3CCC(C(=O)NCc4ccccc4)CC3)c(=O)c2=O)CC1 (stereo not drawn)	18µM*
78	CNC(=O)C1(C)C=CC2(CCCCC2)N1C(C)=O (stereo not drawn)	-4%
79	CN(C)c1ccc(C(=S)NCc2ccco2)cc1	?
80	Cc1cccc(-c2c3c(=O)n(C)c(=O)n(C)c3cn2-c2ccccc2O)c1	?
81	CCN(CC)c1cccc(O)c1	1%
82	CCOC(=O)CCc1c(C)c2ccc(OCc3cc([N+](=O)[O-])ccc3OC)c(C)c2oc1=O	-10%
83	CCN=c1sc(C(=O)NCCc2ccccc2)cc(=O)n1CC	-12%
84	CC(/C=N/N1CCN(c2ccccc2)CC1)=C\c1ccco1	-8%
85	COC(=O)C1=C(C)NC(C)=C([N+](=O)[O-])[C@H]1c1ccccc1C(F)(F)F	1%
86	COC(=O)CN(c1ccc(C)cc1)S(=O)(=O)c1c(C)[nH]c(=O)[nH]c1=O	-19%
87	O=C(O)Cn1cc(C(=O)C2CC2)c2ccccc21	-13%
88	CC1(C)Oc2ccc(C(=O)NC3CC3)cc2N(CC(=O)N2CCOCC2)C1=O	?
89	CC1(C)C(=O)Nc2ccccc2N1C(=O)COC(=O)Cn1cnc2ccccc2c1=O	3%
90	O=S(=O)(c1ccc2ccccc2c1)N1CCN(S(=O)(=O)c2ccc3ccccc3c2)CC1	0%

(more compounds)
No.	structure	HPGD block
91	COc1ccc(Br)cc1/C=N/NC(=O)c1nc(-c2ccccc2)n2c1CCCCC2	-14%
92	O=C(Cc1c(F)cccc1Cl)Nc1ccon1	-11%
93	CC(=O)c1ccc(NS(=O)(=O)c2ccc3ccccc3c2)cc1	-13%
94	O=[N+]([O-])c1cccc(/C=N/n2c(-c3cccnc3)n[nH]c2=S)c1	20µM*
95	COc1cccc(OCCn2ccnc2)c1	-17%
96	O=c1oc(-c2cccs2)nc2ccccc12	?
97	CC(C)COc1ccc(C(=O)NCc2ccco2)cc1	16µM*
98	COC(=O)c1ccccc1NC(=S)N(Cc1ccc2c(c1)OCO2)Cc1cc2ccc(OC)cc2[nH]c1=O	-11%
99	O=C1CC(NCc2ccc3c(c2)OCO3)C(=O)N1CCc1ccccc1 (stereo not drawn)	-19%
100	CC(C)(C)c1cc(NCCCn2ccnc2)n2ncc(-c3ccc(Cl)cc3)c2n1	?
101	CN(C)c1ccc(C2=NOC(CN3C(=O)c4ccccc4S3(=O)=O)C2)cc1 (stereo not drawn)	?
102	CCOC(=O)c1c(C)nc(C)c(C(=O)OCC)c1-c1ccc(OC)cc1	-3%
103	O=C1CCC(=O)N1CN(C(=O)c1ccco1)c1ccccc1	-3%
104	O=C(c1cccc(S(=O)(=O)N2CCCCC2)c1)N1CCc2ccccc21	-7%
105	COc1ccc(/C=C(\C#N)c2nc3ccc(C)cc3[nH]2)cc1Oc1ccc(C(F)(F)F)cc1[N+](=O)[O-]	-11%
106	CCOC(=O)C1=NN(c2ccccc2)C2=NC(C)=C(C(=O)OC)C(c3ccc(C)cc3)N12 (stereo not drawn)	-2%
107	CC(C)C(=O)Nc1ccc(Nc2ccccc2)cc1	-23%
108	COc1ccnc(Oc2ccccc2)n1	-1%
109	OC(COc1cccc(OCC(O)CN2CCOCC2)c1)CN1CCOCC1 (stereo not drawn)	-7%&-12%
110	Cc1cc(NC(=O)CSc2ccc3ccccc3c2)no1	-26%
111	C#CC(C)(C)NC(=O)c1ccccc1OC	-11%
112	COc1ccc(S(=O)(=O)N(C)CC(=O)NC2CCCC2)cc1Cl	-2%
113	CC(NC(=O)NC1CCCCC1)C(c1cccs1)N1CCN(Cc2ccccc2)CC1 (stereo not drawn)	-12%
114	CN1CCCc2cc3c(C(F)(F)F)cc(=O)oc3nc21	?
115	CN(C)c1ccc(N=C/C=C2/N(C)c3ccccc3C2(C)C)cc1	-4%
116	COc1cc(NC(=O)c2ccccc2)c(OC)cc1NC(=O)CN1CCCCC1	-11%
117	C/C(=N/NC(=O)c1ccc(Br)o1)c1cccc(NC(=O)c2ccc(C)o2)c1	-22%
118	Cc1cc(C)nc(NC(=O)CN2C(=O)c3ccccc3C2=O)n1	-10%
119	CC(=O)N1CCN(C(=S)c2ccc(N(C)C)cc2)CC1	20µM*
120	O=C(NC(C(=O)NCCN1CCOCC1)C12CC3CC(CC(C3)C1)C2)C1CCCCC1 (stereo not drawn)	-3%

Reformatted field by field: three of the compounds above.
111) C#CC(C)(C)NC(=O)c1ccccc1OC
  HPGD block: -11%

112) COc1ccc(S(=O)(=O)N(C)CC(=O)NC2CCCC2)cc1Cl
  HPGD block: -2%

113) CC(NC(=O)NC1CCCCC1)C(c1cccs1)N1CCN(Cc2ccccc2)CC1 (stereo not drawn)
  HPGD block: -12%

Additional compounds.
No.	structure	HPGD block
121	Cc1ccc(-c2csc3nnc(SCC(=O)Nc4nsc(-c5ccccc5)n4)n23)cc1	-4%
122	COc1ccc(S(=O)(=O)Nc2ccc3c(c2)OCO3)cc1OC	-19%
123	CC1(C)OC(=O)C=C[C@@]2(C)C1C[C@@H](O)[C@]1(C)C2CC[C@@]2(C)C(c3ccoc3)OC(=O)[C@H]3O[C@]321 (stereo partly drawn)	-5%
124	Clc1cccc(Cl)c1CSc1cc2c(nn1)-c1ccccc1CC2	-14%
125	CCn1ccc(C(=O)Nc2c(C)nn(Cc3c(F)c(F)c(F)c(F)c3F)c2C)n1	-9%
126	CN1C(=O)c2ccccc2C(C(=O)NCCCN2CCCC2)C1c1c[nH]c2ccccc12 (stereo not drawn)	-8%
127	COc1cc(/C=N/n2c(-c3ccc4c(c3)NC(=O)CO4)csc2=Nc2cccc(C)c2)ccc1O	?
128	O=C(CSc1ncc(C(F)(F)F)cc1Cl)N1CCN(S(=O)(=O)c2ccc3ccccc3c2)CC1	-13%

Not all compounds are listed; count on the stated rates, not on these rows.
